Vaccinia Venus = qHTS for Stage-Specific Inhibitors of Vaccinia Orthopoxvirus: Venus Reporter Primary qHTS | Vaccinia virus Venus reporter expression, fluorescence | Potency, µM (series often up to 36.5 µM), inactives show at the highest dose activity change, negative = inhibition, hits mostly inhibitors | 330,000 compounds, 0.46% hits | AID 720580, 2013; active means well fitted inhibition curve with a large enough effect; inconclusive means small, poorly fitted or top-dose-only effect; inactive means no such curve, though single readings can be large or run the other way; tested in A549 cells; note: nearly all actives have a fitted effect of over 30% in size; inactives centre near -10
Vaccinia mCherry = qHTS for Stage-Specific Inhibitors of Vaccinia Orthopoxvirus: mCherry Reporter Primary qHTS | Vaccinia virus mCherry reporter infection, fluorescence; about a quarter of the inactives have no number | Potency, µM (highest dose often 36.5 µM), for the others: top-dose activity change, negative = inhibition, actives largely listed as inhibitors | 310,000 compounds, 0.63% hits; active = well fitted inhibition curve with a large enough effect; inconclusive = small, poorly fitted or top-dose-only effect; inactive = no such curve, though single readings can be large or run the other way; tested in A549 cells; note: nearly all actives have a fitted effect of over 35% in size; inactives centre near -10
An asterisk follows results filed as active; i = inactive; ? = inconclusive; / = not tested or not shown; & = joins results of further samples; [ ] = remark or other dose. % is set by controls: 0 for no effect and ±100 for the full control effect; potency is the fitted concentration of half-maximal effect.

Preview, 2 compounds:
Screens in order – Vaccinia Venus	Vaccinia mCherry
> CC(=O)c1cccc(OC(=O)Oc2cccc(C(C)=O)c2)c1
→ -22%	i
> CN1CCN(C=NC2=NN(c3cccc(C(F)(F)F)c3)CC2)CC1
→ -14%	-25%

The listing, repeating the preview:
Screens in order – Vaccinia Venus	Vaccinia mCherry
> CC(=O)c1cccc(OC(=O)Oc2cccc(C(C)=O)c2)c1
→ -22%	i
> CN1CCN(C=NC2=NN(c3cccc(C(F)(F)F)c3)CC2)CC1
→ -14%	-25%
> CN(CCCn1ccc(NC(=O)OCc2ccccc2)nc1=O)Cc1ccco1
→ -5%	-9%
> CCOc1ccccc1C(=O)NCCCCNC(=O)c1ccccc1OCC
→ 26%	19%
> COC(=O)c1nc[nH]c1[N+](=O)[O-]
→ 0%	i
> Clc1ccc(CON/C=N/c2ncnc3sccc23)c(Cl)c1
→ -29%	/
> Cc1ccc(CNC(=O)CSc2nc(=O)n3ccccc3n2)cc1
→ -9%	i
> CC1(C)OC(=O)C2=C(C[C@@H](C3CCCCC3)O[C@@H]2c2ccc(Cl)cc2)O1
→ -1%	4%
> O=C(Nc1ccc(Cl)c(Cl)c1)N(CCCN1CCOCC1)Cc1cccnc1
→ -8%	-4%
> COc1ccc(C(CNS(=O)(=O)c2cccc(F)c2)N2CCCC2)cc1 (stereo not given)
→ -4%	i
> C=CCn1c(=O)c(C(=O)Nc2ccccc2C)c(O)c2ccccc21
→ -4%	-4%
> CCCCn1c(=N)n(CC(O)c2ccccc2)c2ccccc21 (stereo not given)
→ -14%	-12%
> COc1ccc(-c2cc(=O)c3c(O)c(OC)c(O[C@@H]4OC(COC5OC(C)C(O)C(O)[C@@H]5O)C(O)C(O)C4O)cc3o2)cc1 (stereo not given in full)
→ 0%	i
> Cc1nc2ccccn2c1C(=O)N/N=C/c1ccc(CNC(=O)C(=O)Nc2ccccc2)o1
→ -3%	-10%
> CN=C(Nc1cccnc1)c1cccc(C(F)(F)F)c1
→ -1%	i
> N=c1n(CC(=O)c2ccc([N+](=O)[O-])cc2)c2ccccc2n1Cc1ccccc1
→ -13%	i
> Cc1ccc(-c2c[n+](CC(=O)c3cccs3)c3n2CCC3)cc1
→ 0%	-17%
> COCCNC(=O)C(c1ccc(F)cc1)N(C(=O)CCC(=O)Nc1ccccn1)c1ccc(C)cc1 (stereo not given)
→ -3%	i
> NC(=O)NN=C(C1CC1)C1CC1
→ -12%	i
> COc1ccc(C(C)=NNC(=O)c2cccc(S(=O)(=O)N3CCCC3)c2)cc1
→ 2%	?
> Cc1ccc(C)c(NC(=O)C2CCCN2S(=O)(=O)c2ccc3c(c2)CCCC(=O)N3)c1 (stereo not given)
→ -15%	-14%
> CC(C)Cc1nnc(NC(=O)C2CCCC2)s1
→ -18%	-12%
> Cc1ccc(NC(=O)c2ccc(F)cc2)nc1
→ -3%	3%
> COc1cccc(CN2C(=O)c3ccccc3Sc3ccc(C(=O)NCc4ccccc4)cc32)c1
→ -14%	-17%
> Cc1ccc(P(=S)(c2ccc(C)o2)N2CCOCC2)o1
→ -3%	/
> O=P(O)(Oc1ccccc1)OC(c1ccccc1)C(F)(F)C(F)(F)F (stereo not given)
→ -10%	i
> Oc1ccc(Nc2nc3ccccc3nc2Nc2ccc(O)cc2)cc1
→ -19%	?
> c1ccc2[nH]c(CCCCCc3nc4ccccc4[nH]3)nc2c1
→ -20%	i
> CN1CCCCC1c1ccc(-c2cccnc2)nc1 (stereo not given)
→ -9%&3%	-12%&8%
> CN1CCN(CCC(=O)OC2CC3CCC(C2)N3C)CC1 (stereo not given)
→ ?	/
> O=C(CCc1nc(-c2ccccc2F)no1)NCCN1CCOCC1
→ -4%	/
> O=C(CN1N=C(c2ccccc2)CCC1=O)NCCN1CCc2ccccc2C1
→ -11%	-5%
> Cc1ccc(C2CC(=O)C(C=NCCN3CCN(C(=S)Nc4ccc(F)cc4)CC3)=C(O)C2)cc1 (stereo not given)
→ -9%	-8%
> CCC(C(=O)OCn1nnc2ccccc2c1=O)c1ccccc1 (stereo not given)
→ 1%	-1%
> C=CCc1c(C)nc(SC(C)C)[nH]c1=O
→ -14%	-23%
> CCc1ccc(/C=C2\Oc3cc(OS(C)(=O)=O)ccc3C2=O)cc1
→ -4%	-9%
> Cc1cc(C)n(Cc2ccc(C(=O)NCc3ccco3)o2)n1
→ -21%	/
> Cc1cc(C)n(Cc2ccc(C(=O)O)o2)n1
→ -13%	-3%[1.46 µM]
> COc1ccc(CNS(=O)(=O)c2csc(C(N)=O)c2)cc1OC
→ -12%&5%	-2%&-3%
> Cc1ccc(S(=O)(=O)N(C)C)cc1NC(=O)COC(=O)CCNS(=O)(=O)c1ccccc1
→ 3%	-8%
> Cn1cnnc1-c1cccc(NC(=O)c2cc(F)c(F)cc2Cl)c1
→ -15%	-9%
> COc1ccc(CNC(=S)Nc2ccccc2)cc1
→ -13%	-13%
> CNc1nc2[nH]c(=O)c3c(c2s1)OC(N)=C(C#N)C3c1ccccc1 (stereo not given)
→ -4%	-15%
> O=C1CN(S(=O)(=O)c2cccc(Cl)c2Cl)c2ccccc2N1
→ -5%	-23%
> Cc1ccc(OCC(=O)N(c2ccccn2)C2CCCCC2)c(C)c1
→ -18%	-7%
> CN(C)C1=NCCN1CCCCc1ccccc1
→ -14%	i
> CC(=O)Nc1ccc(SCC(=O)Nc2cc(C)on2)cc1
→ -4%	4%
> COC(=O)c1c([N+](=O)[O-])c(OC)c(OC)c(OC)c1[N+](=O)[O-]
→ -10%	-5%
> CCOc1ccc(Nc2nc(Cc3nnc(SCC(=O)NC4CCCCC4)n3C)cs2)cc1
→ -15%	-20%
> CCOC(=O)N1CCN(C(=S)NC(=O)c2c(-c3c(Cl)cccc3Cl)noc2C)CC1
→ -18%	-11%
> Cc1ccc(Cl)cc1N1CCN(Cc2nnnn2Cc2ccco2)CC1
→ -4%	-18%
> Cc1onc(-c2ccccc2)c1C(=O)Nc1nnc(CC(C)(C)C)s1
→ 3%	-20%
> CN(C(=O)CSc1nc2ccccc2n1CC(=O)NCc1ccc(F)cc1)c1ccc(F)cc1
→ -6%	8%
> CC[C@]12c3[nH]c4ccc(OC)cc4c3CCN1C(=O)C(CC(=O)NCCc1ccccn1)C[C@@H]2C(=O)N1CCN(C(=O)C2CC2)CC1 (stereo not given in full)
→ 1%	i
> COc1ccc(C(=O)/C=C/c2cn(CC(O)CN3CCCCCC3)c3ccccc23)cc1OC (stereo not given)
→ -21%	?
> CCOC(=O)[C@H]1[C@H]2COc3cc(OC)ccc3[C@@H]2N2C(=O)c3cc(F)c(F)cc3NC(=O)[C@@]12C
→ -14%	-11%
> COc1ccc(Cl)cc1C(=O)NCCCn1ccnc1
→ -12%	-14%
> CCN(CC)c1ccc(-c2nc3cnccc3n2C)cc1
→ -5%	/
> C=CCN(c1ccccc1OC)S(=O)(=O)c1cccc(C(=O)Nc2nnc(C3CC3)s2)c1
→ -12%	-8%
> CCOC(=O)C1(C)C(C(=O)OC)=C(c2ccc(OC)cc2)c2ccccc2N1C(=O)OC (stereo not given)
→ -6%	i

Continuation.
Screens in order – Vaccinia Venus	Vaccinia mCherry
> O=C(COC(=O)Cc1ccccc1F)Nc1ccc(F)cc1F
→ -6%	-2%
> Cc1ccc(NC(=O)CSc2nc3ccccc3c3nc(CCn4cncc4C)nn23)c(C)c1
→ 4%&-9%	-1%
> COC(=O)CNC(c1ccccc1)c1cc(Br)ccc1NC(=O)c1ccccc1 (stereo not given)
→ 4%	2%
> COc1ccc(-c2csc(NC(=O)C3CCCCN3S(=O)(=O)c3ccccc3)n2)cc1 (stereo not given)
→ ?	/
> CC1CCCC(C)N1C(=O)CSc1nnnn1C1CCCC1 (stereo not given)
→ -19%	0%
> O=S(=O)(c1ccc(F)cc1)c1nc(-c2ccc(F)cc2)oc1NCCN1CCOCC1
→ -15%	-14%
> CCOC(=O)Cn1nc(C)cc1NC(=O)c1cccnc1
→ -10%	-17%
> Cc1ccc(S(=O)(=O)N(C)CC(=O)N2CCN(C(=O)c3ccco3)CC2)cc1
→ -8%	-20%
> CCOc1ccc(CNC(=O)C2CCN(C(=O)N3CC(C)Oc4ccccc43)CC2)cc1 (stereo not given)
→ -15%	29%
> CC1CCc2cc(F)ccc2N1C(=O)CCl (stereo not given)
→ -2%	-21%
> Cc1cccc(COC[C@H](Cc2ccccc2)N2CCN(C(=O)c3ccc(C(F)(F)F)cc3)CCC2=O)c1
→ -1%	3%
> COc1ccc(-c2cc(C3CC3)nc3sc(C#N)c(N)c23)cc1
→ ?	/
> Cc1nn(C)c(C)c1NC(=O)C12CC3CC(CC(C3)C1)C2
→ 2%	-15%
> COC(=O)c1ccc(S(=O)(=O)N2CCC(C(N)=O)CC2)n1C
→ 2%	-8%
> Cc1ccc(Cn2c(=O)sc3ccccc3c2=O)cc1
→ -3%	-4%
> Cc1c(C(=O)N2CCN(C(=O)c3ccco3)CC2)oc2c(Cl)cccc12
→ -17%	-17%
> O=C(O)/C=C\C(=O)Nc1ccc(N2CCN(c3cccc(Cl)c3)CC2)cc1
→ 10%	14%
> CS(=O)(=O)c1nc(S(=O)(=O)c2ccc(Cl)cc2)c(NCc2ccccn2)s1
→ -10%	-2%
> COc1cc(OC)c(C=O)c(OC(=O)N(C)C)c1
→ ?	-28%
> O=C(N/N=C/c1coc2ccccc2c1=O)c1ccccc1Br
→ -14%	-18%
> CCCCC(CC)CNCC(O)c1ccccc1 (stereo not given)
→ -8%	-7%
> CC1CCCc2sc3nc(SCC(=O)c4ccc(Br)cc4)nc(N)c3c21 (stereo not given)
→ -1%	-11%
> O=C(NCc1ccccc1)NC1CCS(=O)(=O)C1 (stereo not given)
→ -6%	-12%
> C=CCSc1nnc2n(-c3ccccc3OC)c(=O)c3c4c(sc3n12)CCC4
→ -18%	-8%[1.46 µM]
> O=C(NC(=S)Nc1ccc(N2CCCCC2)c(Cl)c1)c1cccs1
→ -18%	-6%
> CC(C)c1ccc(/C=C2\NC(=O)NC2=O)cc1
→ -7%	i
> Cc1nn(C)c(C(=O)N/N=C/c2cccnc2)c1Br
→ -7%	-3%
> Cc1nc(N2CCOCC2)c2cc(-c3ccccc3)sc2n1
→ -22%	-9%[1.46 µM]
> CN(C)c1ccc(CNC(=O)c2ccc(NC(=O)N3CCCCc4ccccc43)cc2)cc1
→ -23%	i
> Cc1cnc(NC(=O)CSc2nnc3ncccn23)s1
→ 0%	-4%

Compound profiles, from the list above:
Entry for COC(=O)CNC(c1ccccc1)c1cc(Br)ccc1NC(=O)c1ccccc1 (stereo not given) → Vaccinia Venus = 4%; Vaccinia mCherry = 2%
Entry for CN(C)c1ccc(CNC(=O)c2ccc(NC(=O)N3CCCCc4ccccc43)cc2)cc1 → Vaccinia Venus = -23%; Vaccinia mCherry = i

Following part
Screens in order – Vaccinia Venus	Vaccinia mCherry
> O=C(c1ccc(Cl)c([N+](=O)[O-])c1)N(c1ccccn1)c1ccccn1
→ -22%	i
> CSc1nc2nc(Cl)c(Cl)nc2[nH]1
→ -10%	i
> COc1ccc(C(=O)OCn2nnc3ccccc3c2=O)cc1
→ 0%	-7%
> CCOC(=O)[C@@H](C)N(C(=O)OC(C)(C)C)S(=O)(=O)N(Cc1ccccc1)[C@@H](C(=O)OC)C(C)C
→ -13%	-5%
> CC(C)C[C@@H](CN1CCCC1CN1C(=S)NC[C@@H]1Cc1ccc(O)cc1)N1C[C@H](Cc2ccccc2)N(CC2CCCCCC2)C1=S (stereo not given in full)
→ -27%	-24%
> c1ccc(-c2csc3nnc(SCc4ccc5c(c4)OCO5)n23)cc1
→ -10%	-18%
> CCOc1ccc2nc(NC(=O)C(NS(=O)(=O)c3cccc4nsnc34)C(C)C)sc2c1 (stereo not given)
→ ?	7.9µM*
> Cc1cccc(C(=O)NNC(=O)CSc2nnc(C(C)C)n2C)c1
→ 0%	4%
> COc1ccccc1OCC(=O)Nc1ccccc1C(=O)NCc1cccnc1
→ -10%	-19%
> C=C(CCO)C1=CCN(S(=O)(=O)C(C)(C)C)[C@H]1CCO
→ -3%	i
> O=C(O)c1ccccc1SCCS(=O)(=O)c1ccc(Cl)cc1Cl
→ -3%	i
> CCc1nc2c(OCc3ccc(F)c(F)c3)cccn2c1N(C)C(=O)c1cccs1
→ -10%	?
> COc1ccc(NC(=O)c2sccc2C)cn1
→ -5%	-12%
> COCCCNc1oc(-c2cccs2)nc1S(=O)(=O)c1ccc(C)cc1
→ -5%	-6%
> O=C(CSc1nnc(NC2CCCCC2)s1)NN1C(=O)NC2(CCCCC2)C1=O
→ -10%	i
> Cc1ccc(Cl)cc1NC(=S)N(CCCN1CCN(C)CC1)Cc1cccs1
→ -18%	-23%
> CCc1ccccc1N(CC(=O)N1CCN(c2ccccc2)CC1)S(C)(=O)=O
→ ?	-2%
> COc1ccc(C2=C(c3ccc([N+](=O)[O-])cc3)C(=O)OC2)cc1
→ -1%	i
> COc1ccc(CNC(=O)c2cccc3c(-c4cnn(C)c4)coc23)cc1OC
→ -16%	-29%
> CC(=O)c1cn(CC(=O)Nc2ccccc2F)c2ccccc12
→ -9%	-14%
> O=CNCC(=O)NCCc1ccc(Cl)cc1
→ -4%	-16%
> CC(=O)c1cccc(NC(=O)C2CCCN(c3nnc(-n4cccc4)s3)C2)c1 (stereo not given)
→ -8%	-6%
> N#CC(C#N)=Cc1ccc(C=C(C#N)C#N)cc1
→ 12%	-14%
> Cc1ccc(NC(=S)N2CCCCC2)cc1C
→ 2%[7.34 µM]	-3%[7.34 µM]
> CCc1ccccc1NC(=O)CN(c1ccccc1OC)S(=O)(=O)c1ccc(C)cc1
→ -6%	-7%

Compounds were not picked by outcome; 0.86% or so of the library scored in one or more.
